# LANA-H2A inh = blockers of LANA interaction with H2A/H2B – biochemical, FP readout, HTS, primary screen; AID 2629, 2010; cell-free LANA-H2A/H2B peptide, fluorescence polarization; inhibition, % (test concentration not listed); 0.6% of 320,000 active; Protein LANA1 (Human herpesvirus 8 type P (isolate GK18)), Q9QR71; in the data active = inhibition mostly above about 10%, no sharp cut-off; inactive = mostly below about 6.7%;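 also: stock transfer was 7.5 nL into about 10 µL; 0% = median of vehicle wells and 100% = median of positive control wells; one replicate is shown; the record names a cut of 25% in any replicate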
# Target sequence (Q9QR71 whole entry, looked up): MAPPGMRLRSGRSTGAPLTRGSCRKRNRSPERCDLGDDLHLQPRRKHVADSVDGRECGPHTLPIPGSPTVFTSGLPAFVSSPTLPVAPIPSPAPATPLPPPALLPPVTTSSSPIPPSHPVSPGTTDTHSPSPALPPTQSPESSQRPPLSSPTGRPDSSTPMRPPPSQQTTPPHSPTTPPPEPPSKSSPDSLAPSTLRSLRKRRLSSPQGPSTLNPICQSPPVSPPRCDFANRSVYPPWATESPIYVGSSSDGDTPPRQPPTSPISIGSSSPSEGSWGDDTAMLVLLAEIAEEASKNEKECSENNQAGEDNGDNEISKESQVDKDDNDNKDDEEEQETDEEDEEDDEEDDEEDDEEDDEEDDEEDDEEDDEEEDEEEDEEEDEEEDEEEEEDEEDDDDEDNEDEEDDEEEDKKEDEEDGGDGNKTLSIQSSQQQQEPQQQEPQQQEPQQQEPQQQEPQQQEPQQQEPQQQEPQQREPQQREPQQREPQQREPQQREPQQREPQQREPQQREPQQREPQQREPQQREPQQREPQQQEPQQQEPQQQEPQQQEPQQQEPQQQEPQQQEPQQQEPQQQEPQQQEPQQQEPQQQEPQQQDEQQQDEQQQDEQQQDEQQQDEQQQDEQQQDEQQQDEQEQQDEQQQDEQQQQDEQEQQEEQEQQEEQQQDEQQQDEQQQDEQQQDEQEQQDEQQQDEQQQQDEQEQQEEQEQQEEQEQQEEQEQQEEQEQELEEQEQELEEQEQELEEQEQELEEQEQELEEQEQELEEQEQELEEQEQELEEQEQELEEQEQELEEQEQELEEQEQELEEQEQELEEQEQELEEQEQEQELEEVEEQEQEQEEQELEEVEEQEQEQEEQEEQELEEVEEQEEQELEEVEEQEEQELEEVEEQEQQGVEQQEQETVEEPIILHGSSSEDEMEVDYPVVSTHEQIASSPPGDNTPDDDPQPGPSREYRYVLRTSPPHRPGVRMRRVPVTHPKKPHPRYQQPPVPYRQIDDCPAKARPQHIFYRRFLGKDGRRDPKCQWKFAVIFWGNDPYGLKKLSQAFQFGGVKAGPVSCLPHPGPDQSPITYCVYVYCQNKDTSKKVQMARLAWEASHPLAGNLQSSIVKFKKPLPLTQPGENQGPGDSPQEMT
# ALR H2O2 inh = inhibitors of human ALR sulfhydryl oxidase, primary screen, biochemical, H2O2 detection, HRP-luminol luminescence, single point. FAD-linked sulfhydryl oxidase ALR (Homo sapiens), P55789. purified ALR, DTT oxidation. inhibition, % (concentration not given with the values). 3.8% of 290,000 active. AID 485317, 2010;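 active = mean and each replicate at 75% or more; inconclusive = only one of the two met; inactive = neither met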;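 also: stock transfer was 7.5 nL into about 7.5 µL; 0% = neutral wells and 100% = wells with inactivated enzyme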
# HNF4A DNA FP = change in binding of human HNF4A to DNA, primary screen, biochemical, fluorescence polarization, FITC-DNA | Hepatocyte nuclear factor 4-alpha (Homo sapiens), P41235 | 1 h | activity change, % at 10 µM | 0.3% of 360,000 active | AID 1224865, 2016; in the data active = activity change above about 30%, passing the limit was not always enough;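 also: controls were the assay level and a saturating level of protein; the project sought stronger binding though the title names inhibitors; some compounds called inactive have numbers as strong as hits; positive values seem to mean higher polarization but the record does not say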
# Calb FLC = C. albicans growth inhibition with fluconazole, primary screen, CaCi-2 strain, Alamar Blue fluorescence; growth inhibition, % (test concentration not listed); C. albicans CaCi-2 (fluconazole-resistant clinical isolate) + fluconazole, 48 h; AID 1979, 2009; 0.57% of 300,000 active;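 active = most replicates above 75%; inconclusive = exactly half above 75%; inactive = most below 75%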;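 also: all wells also contain fluconazole at 8 µg/ml as a sub-toxic cotreatment; 0% = median of DMSO wells and 100% = median of geldanamycin control wells; wells of about 8 µL received 7.5 nL stock; the first replicate is given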
# Vif TR-FRET = inhibitors of Vif binding to APOBEC3G peptide, primary screen, biochemical, TR-FRET, GST-Vif 1-94, biotin-A3G peptide, dose response retest (AID 1117319); 0.57% of 260,000 active; Virion infectivity factor (Human immunodeficiency virus type 1 group M subtype B (isolate …; inhibition, %; hits with a dose series show IC50 in µM; TR-FRET GST-Vif / biotin-A3G peptide binding; higher % means a stronger effect; test concentration not given here; strong numbers were not always called active;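 active = above the screen mean plus three standard deviations and confirmed in dose response; inconclusive = results disagree or hit not tested in dose response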;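 also: Vif residues 1-94 fused to GST binding biotinylated APOBEC3G peptide 110-148; 0% = full assay without inhibitor and 100% = GST in place of GST-Vif; retest series ran down from 100 µM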
# Beta2AR agonist = beta2AR agonists driving receptor internalization, primary screen, cell-based, FAP fluorogen, flow cytometry; Beta-2 adrenergic receptor (Homo sapiens), P07550; Am2.2-beta2AR cells; reference of the scale not given here; response, % (test concentration not listed); 0.43% of 340,000 active; AID 504454, 2011;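 active = response above a set limit, near 3 SD of response in nonfluorescent compounds, cut at about 42% in these data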;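 also: stock transfer was 100 nL into about 11 µL; a reference agonist was the positive control; negative values mostly stem from fluorescent compounds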
# RanGTP-Impb inh = inhibitors of RanGTP-importin-beta interaction, primary screen, biochemical, FRET, CFP-Ran, YFP-importin-beta, homogeneous; cell-free CFP-Ran/YFP-importin-beta FRET ratio; Ran GTPase (GTP-bound) - importin-beta complex; 1.1% of 300,000 active; inhibition, % (test concentration not listed); AID 2216, 2009;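 active = most replicates above 15%; inconclusive = exactly half above 15%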;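 also: 0% = DMSO wells and 100% = Ran loaded with GDP instead of GTP; wells of about 40 µL received 100 nL stock; the first replicate is given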
# * hit, by the source's call; ? = inconclusive; . = not tested or not shown.
SMILES,LANA-H2A inh,ALR H2O2 inh,HNF4A DNA FP,Calb FLC,Vif TR-FRET,Beta2AR agonist,RanGTP-Impb inh
CCOC(=O)C1CCN(c2c(NCc3ccc(C(=O)NC(C)CC)cc3)c(=O)c2=O)CC1 (centres undefined),2.8,-3,-1.7,-3,14%,-3,1.1
Cc1cc(NC(=O)CSCC(=O)N(C)Cc2ccc(F)cc2)no1,0.3,0,1.7,-3,0%,7,-0.6
CCN1C(=O)C2(C(C#N)=C(N)Oc3n[nH]c(-c4ccc(Cl)cc4)c32)c2ccccc21 (centres undefined),0.2,-12,0.7,6,14%,3,1.2
Cc1ccc(C2CC(=O)NC(SCC(=O)OCc3ccccc3)=C2C#N)o1 (centres undefined),-1.2,98*,-4.6,12,9%,-1,2.2
COc1cc(/C=N/Nc2ccc([N+](=O)[O-])cn2)cc(OC)c1O,3.6,100*,6.2,-8,.,14,-1.9
COc1ccc(CNC(=O)c2ccccc2SCC(=O)NCc2ccco2)cc1,-0.9,-5,2.6,.,-8%,11,.
N#Cc1ccccc1OCC(=O)N(Cc1nnc(-c2ccccc2Cl)o1)C1CC1,3.6,5,6.9,1,1%,1,-2.2
O=C(/C=C/c1ccc(F)cc1)NC(=S)Nc1ccccc1,3.7,-23,-1.5,-5,-11%,1,1.2
CN(NC(=O)Nc1ccc(Cl)cc1)c1ncc(C(F)(F)F)cc1Cl,-1.7,-5,-3.5,-12,-4%,0,-4.1
Cc1cccc(N2CCN(C(=O)c3ccc4c(c3)NC(=O)C(CSCc3cccc(F)c3)N4)CC2C)c1 (centres undefined),1.9,5,81*,20,.,-24,-4.4
COc1ccccc1/C=C/C=N/n1c(-c2cc(C)[nH]n2)n[nH]c1=S,3.3,?,1.2,15,.,-14,1.9
COc1ccc(CCNC(=O)c2ccccc2NC(=O)C2=C(C)OCCS2)c(OC)c1,-6.0,-6,2.9,-10,1%,-5,-4.5

# 3 entries picked at random from the list so far, as already listed:
SMILES,LANA-H2A inh,ALR H2O2 inh,HNF4A DNA FP,Calb FLC,Vif TR-FRET,Beta2AR agonist,RanGTP-Impb inh
Cc1cc(NC(=O)CSCC(=O)N(C)Cc2ccc(F)cc2)no1,0.3,0,1.7,-3,0%,7,-0.6
CN(NC(=O)Nc1ccc(Cl)cc1)c1ncc(C(F)(F)F)cc1Cl,-1.7,-5,-3.5,-12,-4%,0,-4.1
COc1cc(/C=N/Nc2ccc([N+](=O)[O-])cn2)cc(OC)c1O,3.6,100*,6.2,-8,.,14,-1.9

# Next section
SMILES,LANA-H2A inh,ALR H2O2 inh,HNF4A DNA FP,Calb FLC,Vif TR-FRET,Beta2AR agonist,RanGTP-Impb inh
CC/C(=N\NC(N)=O)c1ccc(OC)c(OC)c1,0.7,-4,0.7,1,-1%,3,-0.2
Brc1ccc(CNCCCSc2ncccn2)cc1,-2.5,-3,-2.5,11,.,-15,1.2
CCOC(=O)/C(C#N)=C1\C=CN(C)C(C)=N1,-6.3,.,0.9,-16,-3%,-2,4.4
CN1C(=O)C(c2nnc(Nc3cccc4ccccc34)s2)C2CC1(C)Oc1ccccc12 (centres undefined),-5.0,-5,0.5,.,10%,-4,.
COc1ccc(C(C)NC(=O)Cc2cccs2)cc1OC (centres undefined),1.4,-10,-2.8,-3,0%,3,4.1
CC(C)(C)C1CCc2c(C(=O)N/N=C/c3cccs3)csc2C1 (centres undefined),-0.4,17,-1.8,-13,-3%,94*,-1.3
N#CC1=C(N)Oc2cc(O)c(Cl)cc2C1c1cccnc1 (centres undefined),-3.6,-4,8.8,-3,2%,5,52*
Cn1c(C(=O)N2CCC(C(=O)NCc3ccccc3)CC2)cc2sccc21,0.9,1,4.1,31,.,-2,3.6
CCOc1ccc(S(=O)(=O)N2CCCC(C(=O)N3CCCC3)C2)cc1 (centres undefined),-2.8,-3,-0.9,-28,.,-12,0.2
CCc1ccc(N2C(=O)C3CCCN3C2=S)cc1 (centres undefined),-1.8,-4,2.5,1,-3%,-1,-1.6
O=C(CCCC(=O)OCC(Cl)=C(Cl)Cl)Nc1cccc(F)c1,-3.1,-18,1.2,-1,1%,2,0.5
CC(C)n1c(C(F)(F)F)nc2cc(C(=O)N3CCOCC3)ccc21,0.4,0,3.3,1,-2%,-2,1.2
CC(C)CNS(=O)(=O)c1ccc2c(c1)OCCO2,3.5,-7,-0.2,-5,4%,4,1.9
CCCCNc1nc(=S)n(-c2ccccc2)c(C)c1C(C)=O,0.7,6,-1.2,38,-9%,17,2.1
COC(=O)CCCCCC(CCC(=O)OC)NC(C)=O (centres undefined),0.0,-4,-4.6,-4,13%,-2,?
CCCCn1c(-c2ccsc2)nc2c1c(=O)[nH]c(=O)n2CCC,-5.3,.,0.2,14,-9%,-17,?
Cc1ccc(C)c2nc(N3CCCC3)c(C#N)cc12,5.6,10,5.0,.,1%,4,51*
COc1ccc(N/C(N)=N/c2nc(CSc3ccc(Cl)cc3)cc(=O)[nH]2)cc1,-11,1,5.9,-7,2%,-3,2.0
NS(=O)(=O)c1cccc(NC(=O)c2ccc(NS(=O)(=O)c3cccc([N+](=O)[O-])c3)cc2)c1,7.5,-6,-1.8,.,6%,3,.
Cc1ccc(C(=O)Nc2ccc3c(c2)CCC3)o1,6.6,.,5.3,15,2%,-1,4.6
COc1ccc(C(=O)N2CCOC2CNC(=O)C(=O)NCc2ccccc2Cl)cc1 (centres undefined),0.6,-1,0.5,-1,1%,0,2.1
O=C(OCc1c(F)cccc1Cl)c1cccc(S(=O)(=O)N2CCOCC2)c1,0.2,.,3.4,.,-8%,3,.
Cc1csc(CN(C)C(=O)CC2C(=O)NCCN2Cc2ccc(F)c(F)c2)n1 (centres undefined),-2.3,-11,-1.6,14,.,-7,8.3
N/C(COc1ccc(Cl)cc1)=N\NS(=O)(=O)c1ccccc1,-2.9,11,-2.6,1,12%,3,3.3
CCOC(=O)c1ccc(S(=O)(=O)Nc2cc(S(=O)(=O)N3CCOCC3)ccc2O)cc1,1.7,16,2.5,.,.,3,.
COc1ccc(C(=O)Nn2c(CCC(=O)O)ccc2-c2ccc(C)cc2)cc1OC,5.7,25,-0.3,-5,4%,11,-0.3
O=C(NCCC1=CCCCC1)c1cnc2n(c1=O)CCS2,8.1,-10,-1.7,7,-3%,-13,3.0
CC(=O)Nc1ccc(S(=O)(=O)N(Cc2ccco2)CC2CCCO2)cc1 (centres undefined),-0.9,.,-0.4,-4,12%,-5,-1.0
COc1ccc(NC(=O)CSc2nc(N)c3cc4c(nc3n2)CCCC4)cc1,4.5,41,11,9,?,-13,-1.9
CCOc1ccc2oc(C(=O)NNC(=O)c3ccccc3O)c(C)c2c1,3.2,.,0.6,63,7%,-4,1.7
COC(=O)c1cn(NC(=O)Cc2ccccc2Br)c(=O)c2ccccc12,0.5,-2,-2.9,3,.,6,3.2
O=S(=O)(c1ccccc1)N1CCC(Oc2ccc(-n3cnnn3)cc2)CC1,0.7,-18,1.4,0,.,10,-2.3
COc1ccc(Cn2ccnc2SCC(=O)Nc2cccc(NC(C)=O)c2)cc1,0.8,98*,-4.1,13,1%,3,-3.6
COc1ccc2[nH]c(C(=O)NCc3ccc4c(c3)OCO4)cc2c1,1.3,-29,0.6,-6,.,-2,0.2
COc1ccc(C(CC(=O)O)NC(=O)COc2ccc(C)cc2)cc1OC (centres undefined),5.1,-4,0.5,-6,-4%,6,-3.4
CCOC(=O)C1(CCCc2ccccc2)CCN(C(=O)CCn2cnnn2)CC1,0.4,.,0.8,3,.,-5,4.6
NC(=O)C1Cc2ccccc2CN1S(=O)(=O)c1ccc(Cl)s1 (centres undefined),2.8,2,1.5,2,.,5,1.3
CN(Cc1ccccc1)C(=O)COC(=O)COc1ccc(Cl)cc1,3.3,-13,1.4,.,0%,0,.
C[C@@H]1CCCCCCCCC(=O)OCCN[C@H](C)CCCCCCCCC(=O)OCCN[C@H](C)CCCCCCCCC(=O)OCCN1,-2.8,-3,2.7,.,.,21,.
COc1ccc(/C(O)=C/c2nc3ccc(C(=O)NCCc4cccc(C)c4)cc3[nH]c2=O)cc1OC,5.2,-13,44*,-4,.,-5,?
COc1ccc(/C=C/c2nnc(NC(=O)COc3ccccc3)s2)cc1,-1.2,.,0.1,3,-17%,3,-2.3
N#Cc1ccc(C(=O)N2CCN(S(=O)(=O)c3ccc(Br)s3)CC2)cc1,2.8,-1,6.4,-3,0%,0,2.2
COc1ccc(-n2c(SCC(=O)Nc3ccc(C)cc3)nc(O)c(Cc3ccccc3)c2=O)cc1,1.5,98*,-0.3,-1,2%,5,0.0
COc1ccc(-c2nc(-c3cccs3)c(-c3cccs3)[nH]2)cc1OC,-1.9,30,6.4,5,-5%,11,-7.5
Cc1nnc(SCC(=O)N2CCN(S(=O)(=O)c3ccccc3)CC2)n1Cc1ccccc1,2.5,-1,-0.5,-12,20%,0,0.7
Cc1cccc(N(C(=O)Cn2nnc(-c3ccc(F)cc3)n2)C(C(=O)NC(C)(C)C)c2ccncc2)c1 (centres undefined),-5.7,9,3.1,-3,16%,3,2.2
CC(=O)NC(Cc1ccc(C)cc1)C(=O)NC1CCN(S(=O)(=O)c2ccccc2)CC1 (centres undefined),1.6,.,-3.9,5,-4%,-2,-1.6
O=C(CCl)Nc1ccc(N=Nc2ccccc2)cc1,.,.,-2.0,-34,-5%,13,6.9
O=C(Cc1ccccc1)Nc1nc2ccccc2[nH]1,0.9,-1,4.5,4,-1%,-21,-0.5
Cc1ccc(S(=O)(=O)NCc2ccc(C(=O)N3CCN(c4ccccn4)CC3)cc2)cc1,-4.5,-3,-0.3,0,6%,-1,-1.8
O=C(O)COc1ccc2c3c(c(=O)oc2c1)CCCC3,1.7,-1,-2.8,10,.,13,1.3
O=C1Nc2ccccc2O/C1=C\c1ccccc1,1.9,-4,2.2,3,-2%,-1,2.3
CCOC(=O)c1oc2cc(OC(C)=O)ccc2c(=O)c1-c1ccc(OC)c(OC)c1,-0.8,6,-3.6,-4,.,10,0.3
Cn1nc2c3cc(F)ccc3n(Cc3ccc(F)cc3)cc-2c1=O,-1.5,-6,5.6,-2,.,7,-0.3
Cc1ccc(NCc2nnc(SCc3ccc(C#N)cc3)n2Cc2ccco2)c(C)c1,3.3,.,4.3,14,>100µM*,20,0.0
COc1cccc(CNc2ccc(N3CCC(C)CC3)cc2)c1OC,-1.4,98*,-3.1,9,?,0,2.2
CCC(C)c1ccccc1N1CC(C(=O)NCCCn2nc(C)cc2C)CC1=O (centres undefined),-1.0,.,1.4,.,.,-5,.
Cc1noc(C)c1S(=O)(=O)N1CCC(C(=O)NC2CCCc3ccccc32)CC1 (centres undefined),-1.8,-6,-1.4,-3,30%,3,-1.2
COc1ccc(S(=O)(=O)Nc2ccccc2OC)cc1NC(=O)CC1CC2CCC1C2 (centres undefined),-1.9,-1,3.4,5,-10%,0,-0.8
O=C(NC1CCCCC1)C1CCCN(c2nnnn2-c2ccccc2)C1 (centres undefined),-2.9,.,-0.9,4,-2%,2,3.8
CCn1c(Cc2c(C)[nH]c3ccccc23)nnc1SCC(N)=O,-1.7,57,-0.5,-14,-6%,2,2.9
O=C(C(=O)N1CCN(Cc2ccc3c(c2)OCO3)CC1)c1c[nH]c2ccccc12,5.2,0,2.4,-10,.,-2,3.7

# High-throughput results deposited in PubChem BioAssay by several laboratories.
